D2 ag – human D2 receptor agonism in beta-arrestin assay. AID 624465. DiscoveRx PathHunter D2 beta-arrestin, luminescence, 90 min; 100% = 57 uM dopamine signal. activation, % (no concentration beside the values). actives 0.084% (n = 360,000). P14416; in the data active = activation above about 40%; inconclusive = about 15% to 40%; inactive = below about 15%; further: compound concentration not given in the record; the text of the record calls up to 30% inactive
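DiscoveRx PathHunter D2 beta-arrestin cells (2,100/well) attached overnight, then compound-stimulated 90 min at 37 C in HBSS/10 mM HEPES/0.1% Tween-20 buffer; beta-galactosidase complementation read by luminescence after 1 h at ambient temperature. Dopamine 57 uM final (EC100) as control.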
D2 PAM – potentiates the human D2 dopamine receptor allosterically; P14416; DiscoveRx D2 beta-arrestin cells, luminescence, 90 min; 100% = 57 uM dopamine signal; potentiation, % (concentration not given with the values); actives 0.23% (n = 360,000); AID 624464; active = potentiation of 50% or more; inconclusive = 30% to 50%; inactive = 30% or less;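 further: compound concentration not given in the record; tested on top of an EC20 dose of dopamine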
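D2 cells co-treated with compound plus 50 nM dopamine (EC20) for 90 min at 37 deg C to detect potentiation. Beta-arrestin recruitment was read as enzyme-fragment luminescence after 1 h at ambient temperature. Full response was set by 57 uM dopamine.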
CtBP-E1A blk – inhibitors of CtBP/E1A interaction. AlphaScreen GST-E1A/His-CtBP binding, 1536-well; hits give low values; control for the full effect not named in the record. actives 0.49% (n = 340,000). AID 651724. activity change, % (test concentration not listed); in the data active means activity change below about -65%; inconclusive means about -30% to -65%; inactive means above about -30%; further: on the % scale 0 is the no-effect control and ±100 the full control effect; compound concentration not given in the record
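Protein mix (5X: 125 nM each GST-E1A, His-CtBP) was incubated with pinned compound 2 h at 37 deg C in dark, in 50 mM Tris pH 8.0 buffer with 300 mM NaCl. Glutathione donor and nickel acceptor beads followed; AlphaScreen signal read after 1 h.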
Six1-Eya2 blk – inhibitors of human Six1/Eya2 interaction | AlphaScreen GST-Six1/His-Eya2 binding, biochemical; hits give low values; control for the full effect not named in the record | activity change, % (concentration not given with the values) | actives 0.56% (n = 360,000); in the data active = activity change below about -65%; inconclusive = about -30% to -65%; inactive = above about -30%; further: on the % scale 0 is the no-effect control and ±100 the full control effect
Target sequence (O00167 whole entry, looked up): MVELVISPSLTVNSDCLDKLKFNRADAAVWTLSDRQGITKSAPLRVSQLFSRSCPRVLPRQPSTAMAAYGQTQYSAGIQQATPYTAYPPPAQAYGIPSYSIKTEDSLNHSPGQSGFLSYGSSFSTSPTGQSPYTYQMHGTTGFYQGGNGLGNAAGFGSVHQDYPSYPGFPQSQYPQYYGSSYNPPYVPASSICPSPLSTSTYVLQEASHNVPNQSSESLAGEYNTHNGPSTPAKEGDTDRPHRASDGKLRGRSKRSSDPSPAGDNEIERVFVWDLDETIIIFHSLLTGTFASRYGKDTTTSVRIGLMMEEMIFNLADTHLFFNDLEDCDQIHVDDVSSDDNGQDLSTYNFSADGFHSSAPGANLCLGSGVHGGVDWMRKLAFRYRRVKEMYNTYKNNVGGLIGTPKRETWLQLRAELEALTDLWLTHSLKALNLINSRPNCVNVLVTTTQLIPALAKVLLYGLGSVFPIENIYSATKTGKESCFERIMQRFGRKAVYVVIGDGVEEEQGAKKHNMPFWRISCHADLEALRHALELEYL
Target sequence (Q15475 whole entry, looked up): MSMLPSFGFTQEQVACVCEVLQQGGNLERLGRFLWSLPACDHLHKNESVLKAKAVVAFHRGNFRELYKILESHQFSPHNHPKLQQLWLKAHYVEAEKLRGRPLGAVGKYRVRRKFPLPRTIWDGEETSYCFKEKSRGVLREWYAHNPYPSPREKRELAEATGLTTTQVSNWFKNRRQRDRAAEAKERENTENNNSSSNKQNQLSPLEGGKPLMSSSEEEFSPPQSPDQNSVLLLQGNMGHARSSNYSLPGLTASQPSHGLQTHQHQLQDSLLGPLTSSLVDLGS
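Compounds are tested against tagged Six1 and Eya2 proteins bridged by glutathione donor and nickel acceptor beads; after a one-hour incubation at 37 °C without light, AlphaScreen emission is recorded.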
gsp antag – antagonists of gsp mutant (McCune-Albright syndrome); Potency, µM (doses to about 76.9 µM), inactives show top-dose activity change, negative = inhibition, usual class: inhibitors; actives 0.4% (n = 340,000); gsp-mutant cells, cAMP HTRF, 30 min; control for the full effect not named in the record; AID 624288; active = falling curve of any shape with a large fitted effect; inconclusive = falling curve, mostly with a smaller effect; inactive = flat or rising curve; cell line not stated here;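 further: intracellular cAMP measured with PDE inhibitor Ro 20-1724 present during compound exposure; potency means the concentration at half of the fitted maximal effect; on the % scale 0 is the no-effect control and ±100 the full control effect; nearly all actives have a fitted effect of over 65% in size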
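Measurement of cellular cAMP by homogeneous time-resolved fluorescence following a 30 min compound exposure at 37C. The PDE inhibitor […] was present throughout; the assay buffer was DPBS with 0.05% BSA and 0.005% Tween 20.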
gsp ag – activates gsp, the McCune-Albright syndrome mutation; gsp mutant cells, cAMP HTRF, 30 min; control for the full effect not named in the record; Potency, µM (top dose mostly 76.9 µM), for the others: top-dose activation (cAMP increase), hits mostly activators; actives 0.13% (n = 340,000); active = well fitted activation curve with a large enough effect; inconclusive = small, poorly fitted or top-dose-only effect, or another doubt; inactive = no such curve, though single readings can be large or run the other way; cell line not stated here;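 further: phosphodiesterase inhibitor Ro 20-1724 added with compounds to block cAMP breakdown; potency means the concentration at half of the fitted maximal effect; nearly all actives have a fitted effect of over 60% in size; about a fifth of the inactives were tested at one dose only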
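Cells in DMEM/10% FBS with G418 were pretreated with compounds in DMSO plus […] (300 uM stock) for 30 min at 37C. cAMP was measured by HTRF (cAMP-d2 plus anti-cAMP antibody-K) after 30 min at room temperature.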
Active calls of the source: *; [ ] = another dose, or the depositor's remark.

For COc1ccc(C2=CC3=C(Br)C(=O)C(C)(OC(=O)c4ccco4)C(=O)C3=CO2)cc1 (centres undefined) the results were D2 ag 1.7, D2 PAM 0, CtBP-E1A blk -2, Six1-Eya2 blk inconclusive and gsp antag -19%.
Screening Cc1sc2ncnc(SCC(=O)NC(=O)NCc3ccco3)c2c1C returned D2 ag 0.6, D2 PAM -17, CtBP-E1A blk 1, Six1-Eya2 blk -4, gsp antag 24% and gsp ag 15%.
Screening CN(C(=O)c1nc(-c2ccccc2)n(-c2ccccc2)n1)C1CCS(=O)(=O)C1 (centres undefined) returned D2 ag -0.6, D2 PAM -5, CtBP-E1A blk 6, Six1-Eya2 blk -5, gsp antag -3% and gsp ag 3%[15.4 µM].
Cc1cccc(N2CCN(C(=O)CCCOc3ccccc3)CC2)c1C was read as D2 ag -2.8, D2 PAM 5, CtBP-E1A blk 9, Six1-Eya2 blk 0, gsp antag -16% and gsp ag -16%.
For COc1ccc(OC)c(/C=N/NC(=O)c2ccncc2)c1 the results were D2 ag 1.7, D2 PAM -2, CtBP-E1A blk -6, Six1-Eya2 blk 2, gsp antag 1% and gsp ag 7%[15.4 µM].
`COCCNC(=S)N/N=C1\CC(C)CC(C)(C)C1` (centres undefined) gave D2 ag -5.2, D2 PAM -3, CtBP-E1A blk -2, Six1-Eya2 blk -8, gsp antag -4% and gsp ag -16%[15.4 µM].
COc1cccc(CC(=O)Nc2cc(S(=O)(=O)N3CCOCC3)ccc2N2CCN(C)CC2)c1 was read as D2 ag -5.6, D2 PAM -11, CtBP-E1A blk -7, Six1-Eya2 blk 5, gsp antag -5% and gsp ag 8%.
For Cc1sc2ncnc(SCC(=O)NCC(C)C)c2c1C the results were D2 ag -1.5, D2 PAM 5, CtBP-E1A blk -2, Six1-Eya2 blk -1, gsp antag -5% and gsp ag 15%.
For O=C(CSCc1ccc(Cl)cc1)Nc1cc([N+](=O)[O-])ccc1O the results were D2 ag -6.8, D2 PAM -5, CtBP-E1A blk -24, Six1-Eya2 blk -12, gsp antag inconclusive and gsp ag 14%.
Screening COc1ccc(NCc2nnc(SCC(=O)NCc3ccco3)n2-c2ccccc2OC)cc1 returned D2 ag -4.9, D2 PAM -18, CtBP-E1A blk -1, Six1-Eya2 blk -6, gsp antag 0% and gsp ag 2%.
Cc1ccc2[nH]c3c(=O)n(CC(=O)NCCCN4CCN(c5ccc(F)cc5)CC4)ncc3c2c1 was read as D2 ag -2.8, D2 PAM -30, CtBP-E1A blk -3, Six1-Eya2 blk 1, gsp antag 4% and gsp ag inconclusive.
C[C@@](Cc1ccc(O)c(O)c1)(NN)C(=O)O was read as D2 ag -1.2, D2 PAM -6, CtBP-E1A blk -6, Six1-Eya2 blk 5 and gsp antag 12%.
CCc1ccc(S(=O)(=O)NCCc2cn3ccc(C)cc3n2)s1 was read as D2 ag 1.2, D2 PAM -7, CtBP-E1A blk 1, Six1-Eya2 blk -3, gsp antag 10% and gsp ag -9%.
`O=C(NCc1ccccc1Cl)c1cc(C(=O)C2CC2)c[nH]1` gave D2 ag -1.1, D2 PAM -3, CtBP-E1A blk 5, Six1-Eya2 blk 5, gsp antag 1% and gsp ag 2%.
Screening Cc1ccc2cc3c(NC(=O)c4ccco4)nn(C)c3nc2c1 returned D2 ag -2.2, D2 PAM 4, CtBP-E1A blk -28, Six1-Eya2 blk -19, gsp antag -14% and gsp ag 21%.
Screening Oc1c(Cl)cc(Cl)cc1CNc1ccccn1 returned D2 ag 1.2, D2 PAM -7, CtBP-E1A blk inconclusive, Six1-Eya2 blk -72*, gsp antag -2% and gsp ag -7%[15.4 µM].
O=C1CCc2cc(S(=O)(=O)Nc3cccc(F)c3)cc3c2N1CC3 was read as D2 ag 1.9, D2 PAM -3, CtBP-E1A blk 5, Six1-Eya2 blk 5, gsp antag 4% and gsp ag 14%[15.4 µM].
`COc1cccc(NS(=O)(=O)c2ccc(NC(C)=O)cc2)c1` gave D2 ag 1.8, D2 PAM -4, CtBP-E1A blk 4, Six1-Eya2 blk 3, gsp antag -5% and gsp ag 9%.
`COCCCNC(=O)/C(C#N)=C/c1c(N2CCN(c3cccc(Cl)c3)CC2)nc2c(C)cccn2c1=O` gave D2 ag 4.3, D2 PAM -21, CtBP-E1A blk -2, Six1-Eya2 blk -19, gsp antag inconclusive and gsp ag 8%.
Screening CC(C)(C)c1ccc(C(=O)OCCNC(=O)c2c(Cl)nc3ccccn23)cc1 returned D2 ag -0.5, D2 PAM -9, CtBP-E1A blk -1, Six1-Eya2 blk 0, gsp antag -26% and gsp ag inconclusive.
For Cc1occc1C(=O)Nc1cccc(S(=O)(=O)N2CCOCC2)c1 the results were D2 ag -1.3, D2 PAM -15, Six1-Eya2 blk -10, gsp antag 5% and gsp ag -27%.
For COc1ccccc1NC(=O)C(=O)NCCC1CCCCN1S(=O)(=O)c1ccc(F)cc1 (centres undefined) the results were D2 ag -3.7, D2 PAM 5, CtBP-E1A blk 0, Six1-Eya2 blk -10, gsp antag 1% and gsp ag 2%.
For CCS(=O)(=O)NCC(c1ccco1)N1CCN(c2ccc(F)cc2)CC1 (centres undefined) the results were D2 ag -5.8, D2 PAM -14, CtBP-E1A blk 23, Six1-Eya2 blk 0, gsp antag -14% and gsp ag -34%[inhibitor].
CCOc1ccc(C(=O)NCC(=O)OCC(=O)N(C)CC(=O)Nc2ccccc2CC)cc1OCC was read as D2 ag 4.1, D2 PAM -4, CtBP-E1A blk -24, Six1-Eya2 blk 0, gsp antag -13% and gsp ag 20%.
`O=C(NCCc1c[nH]c2ccccc12)C(F)(F)F` gave D2 ag -3.0, D2 PAM -4, CtBP-E1A blk -1, Six1-Eya2 blk 6, gsp antag -8% and gsp ag 18%.
`Cn1ccc2c(-c3ccc(CO)cc3)cc3c(c21)C1CCC3O1` (centres undefined) gave D2 ag -2.7, D2 PAM -5, CtBP-E1A blk -8 and Six1-Eya2 blk -5.
`Cn1c(Cn2nnc3ccccc32)nnc1SCC(=O)Nc1ccc2c(c1)OCO2` gave D2 ag -2.6, D2 PAM -3, CtBP-E1A blk 10, Six1-Eya2 blk 0, gsp antag 11% and gsp ag -3%.
`O=C(O)CCCc1ccc2ccc3cccc4ccc1c2c34` gave D2 ag -1.0, D2 PAM -8, CtBP-E1A blk -4, Six1-Eya2 blk 0, gsp antag -19% and gsp ag 15%.
`O=[N+]([O-])c1cc(Cl)ccc1Oc1ccc(-c2nnco2)cc1` gave D2 ag -1.4, D2 PAM -13, CtBP-E1A blk -1, Six1-Eya2 blk 2, gsp antag 19% and gsp ag 4%[15.4 µM].
Screening O=C(c1ccncc1)N1CCN(S(=O)(=O)c2ccc(F)cc2)CC1 returned D2 ag -2.1, D2 PAM -4, CtBP-E1A blk 7, Six1-Eya2 blk -1, gsp antag 12% and gsp ag -8%.
Screening Cc1ccc(OCCCC(=O)Nc2ccc(N3CCOCC3)cc2)cc1 returned D2 ag -2.9, D2 PAM 0, CtBP-E1A blk -3, Six1-Eya2 blk -7, gsp antag -7% and gsp ag -1%.
Screening Nc1ccc(-n2nncc2-c2ccco2)cc1 returned D2 ag -1.4, D2 PAM -4, CtBP-E1A blk -6, Six1-Eya2 blk -1, gsp antag -2% and gsp ag 29%.
Screening CC(C)N1CCC(NC(=O)Nc2ccccc2)CC1 returned D2 ag -2.1, D2 PAM -6, CtBP-E1A blk 15, Six1-Eya2 blk 0, gsp antag 8% and gsp ag 13%[15.4 µM].
O=C1Nc2cc3c(cc2Sc2ccccc21)OCCO3 was read as D2 ag 0.1, D2 PAM -15, CtBP-E1A blk -2, Six1-Eya2 blk 5, gsp antag -11% and gsp ag -16%.
Cc1ccccc1-c1csc(C(C)(O)c2cccnc2)n1 (centres undefined) was read as D2 ag 5.0, D2 PAM -2, CtBP-E1A blk -18 and Six1-Eya2 blk 2.
For O=C(NCc1ccccc1CN1CCCC1)C1CCN(S(=O)(=O)c2ccc(F)c(F)c2)CC1 the results were D2 ag 0.3, D2 PAM 12, CtBP-E1A blk -3, Six1-Eya2 blk 6, gsp antag -13% and gsp ag -6%.
Screening COc1ccc(N2CC(C)(C)[C@H](CC(=O)Nc3ccc(Br)cc3)C2=O)cc1 returned D2 ag -3.1, D2 PAM -4, CtBP-E1A blk 1, Six1-Eya2 blk -7 and gsp ag -109%[inhibitor].
For CN1CCC(N(C)C(=O)NC2CCCCC2)CC1 the results were D2 ag -3.3, D2 PAM -4, CtBP-E1A blk -9, Six1-Eya2 blk -22, gsp antag 19% and gsp ag 3%[15.4 µM].
Screening CSc1ncccc1C(=O)OCC(=O)c1cccc(Br)c1 returned D2 ag -2.1, D2 PAM -11, CtBP-E1A blk 0, Six1-Eya2 blk -2, gsp antag -16% and gsp ag -25%[15.4 µM].
`COC(=O)Cn1c(=NC(=O)c2sc3ccccc3c2Cl)sc2cc(S(N)(=O)=O)ccc21` gave D2 ag -1.3, D2 PAM -7, CtBP-E1A blk -1, Six1-Eya2 blk 1, gsp antag -4% and gsp ag 0%.

A draw from above in order of molar mass, lowest first:
Screening Nc1ccc(-n2nncc2-c2ccco2)cc1 returned D2 ag -1.4, D2 PAM -4, CtBP-E1A blk -6, Six1-Eya2 blk -1, gsp antag -2% and gsp ag 29%.
O=C1Nc2cc3c(cc2Sc2ccccc21)OCCO3 was read as D2 ag 0.1, D2 PAM -15, CtBP-E1A blk -2, Six1-Eya2 blk 5, gsp antag -11% and gsp ag -16%.
Screening COc1ccc(N2CC(C)(C)[C@H](CC(=O)Nc3ccc(Br)cc3)C2=O)cc1 returned D2 ag -3.1, D2 PAM -4, CtBP-E1A blk 1, Six1-Eya2 blk -7 and gsp ag -109%[inhibitor].

Continuation.
NS(=O)(=O)c1cccc(NC(=O)COC(=O)Cc2ccc(S(=O)(=O)N3CCOCC3)s2)c1 was read as D2 ag 3.7, D2 PAM -1, CtBP-E1A blk -6, Six1-Eya2 blk 5, gsp antag 6% and gsp ag 6%.
CCc1ccc(NC(=O)c2cc(C)on2)cc1 was read as D2 ag 0.5, D2 PAM -13, CtBP-E1A blk -1, Six1-Eya2 blk 4, gsp antag 1% and gsp ag -1%.
`C=CCNC(=O)c1ccccc1S(=O)c1ccccc1C#N` (centres undefined) gave D2 ag -3.6, D2 PAM -4, CtBP-E1A blk 10, Six1-Eya2 blk 8, gsp antag 12% and gsp ag -25%.
`Cc1ccc(-n2nc(C)c3c(C)c(CCC(=O)O)c(C)nc32)cc1C` gave D2 ag -1.3, D2 PAM 7, CtBP-E1A blk 3, Six1-Eya2 blk 0, gsp antag inconclusive and gsp ag inconclusive.
For CC(C)C[C@H](NC(=O)OC(C)(C)C)C(=O)N1CCC(C(=O)N[C@@H](Cc2c[nH]c3ccccc23)C(=O)O)CC1 the results were D2 ag -1.9, D2 PAM 0, CtBP-E1A blk 13, Six1-Eya2 blk 2, gsp antag 9% and gsp ag -8%[15.4 µM].
